Screening results: PubChem, National Center for Advancing Translational Sciences (NCATS)
AmpC inh no det: Promiscuous and Specific Inhibitors of AmpC Beta-Lactamase (assay without detergent); AID 585, 2007; P00811; 1.8% of 71,000 active; Potency, µM (titrated, usually from 28.7 µM), for inactives: at the top dose activity change, negative = inhibition; AmpC nitrocefin hydrolysis, absorbance 480 nm, no detergent; potencies from a single point are estimates; active = falling curve, for most hits resting on a single point; inconclusive = weak or doubtful change; inactive = flat or rising curve; further: % of control where 0% means no effect; about half of the hits show no inhibition at the top dose; a quarter of the inactives give rising signals
Target sequence (P00811 whole entry, looked up): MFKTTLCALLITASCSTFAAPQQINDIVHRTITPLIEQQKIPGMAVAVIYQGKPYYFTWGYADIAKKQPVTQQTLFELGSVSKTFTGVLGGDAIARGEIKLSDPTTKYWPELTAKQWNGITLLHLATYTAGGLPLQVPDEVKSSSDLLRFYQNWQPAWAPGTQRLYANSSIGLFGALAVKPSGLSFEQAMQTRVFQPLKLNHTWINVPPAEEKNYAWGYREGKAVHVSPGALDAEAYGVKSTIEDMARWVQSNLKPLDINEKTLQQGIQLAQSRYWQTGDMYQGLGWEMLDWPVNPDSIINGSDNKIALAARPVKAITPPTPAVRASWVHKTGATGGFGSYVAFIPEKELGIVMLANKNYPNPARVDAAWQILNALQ
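AmpC, 20 mM phosphate pH 7.0; 15 min cpd preinc, RT; start with nitrocefin (800 uM stock); A480 kinetic read, 20 s intervals, 4 min. No-enzyme wells = negative control.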
* marks the source's active call; other numbers are inactive results; & = joins results of further samples; [ ] = remark or other dose. Potency means the concentration at half of the fitted maximal effect.

compound	AmpC inh no det
O=C(O)C1CCN(c2nc(-c3ccccc3)nc3c2oc2ccccc23)CC1	9%
CCn1c(=O)c2c(cnn2C)c2ccccc21	0%
C=CCn1c(=O)n(CCOC)c(=O)c2sc3ccccc3c21	4µM*[single pt active]
COc1ccccc1NC(=O)CSc1nnnn1C	0%
COc1ccc(CNC(=O)c2noc3c2CCCC3)cc1	0%
Cc1onc(-c2c(F)cccc2Cl)c1C(=O)OCC(=O)Nc1c(C)n(C)n(-c2ccccc2)c1=O	57%
O=C1NC(c2cc3c(cc2Cl)OCO3)Oc2ccccc21 (stereo not drawn)	-1%
Cn1c2c(c(=O)n(C)c1=O)CN(Cc1ccc(F)cc1)CN2	-10%
Cc1ccc(S(=O)(=O)NC(C)C(=O)NC2CCCCCC2)cc1 (stereo not drawn)	3%
CCOc1nc(-c2ccccc2)ccc1-c1noc(COC)n1	73%
C[N+]1(C)[C@@H]2CC(OC(=O)[C@@H](CO)c3ccccc3)C[C@@H]1[C@H]1O[C@H]12 (stereo partly drawn)	-1%[5.75 µM]
Cc1nn(C)c(C)c1S(=O)(=O)N1CCC(C(=O)NC2CCCc3ccccc32)CC1 (stereo not drawn)	96%
COC(=O)C1C(=O)C2=C(CC1C)NC(=O)CC2c1ccccc1 (stereo not drawn)	6%
Nc1ncnc2c1ncn2[C@H]1O[C@@H](CO)[C@@H](O)[C@H]1N	-2%[5.75 µM]
C=CCc1ccccc1OCC(CN1CCCCC1)OC(C)=O (stereo not drawn)	45%
Cc1ccc(CCN2CC(C(=O)NCCCN3CCCCCC3)CC2=O)cc1 (stereo not drawn)	1%
CCOC(=O)CC1=CC(C)(CC(=O)OCC)C(C#N)(C#N)C(N)=C1C#N (stereo not drawn)	2%
CCOC(=O)C1=C(Cn2ccc(C(F)(F)F)n2)NC(=O)NC1c1ccc2c(c1)OCO2 (stereo not drawn)	1%
CC[n+]1cc(-c2ccccc2)nc(N2CCOCC2)n1	16µM*[single pt active]
CC(C)(C)C(=O)Cn1c(=N)n(Cc2ccccc2)c2ccccc21	0%

Next part, overlapping the part above by 3 compounds.
compound	AmpC inh no det
CCOC(=O)C1=C(Cn2ccc(C(F)(F)F)n2)NC(=O)NC1c1ccc2c(c1)OCO2 (stereo not drawn)	1%
CC[n+]1cc(-c2ccccc2)nc(N2CCOCC2)n1	16µM*[single pt active]
CC(C)(C)C(=O)Cn1c(=N)n(Cc2ccccc2)c2ccccc21	0%
CN(C)c1ccc(-c2cncnc2NCc2ccccc2)cc1	38%
N#Cc1c(-c2ccc(Cl)cc2Cl)nc2n(c1=O)CCS2	10µM*[single pt active]
CCc1nn(CC(=O)N2CCN(Cc3ccc4c(c3)OCO4)CC2)c(=O)c2cc3occc3n12	106%
COc1cc(CN2CCC(C(=O)N3CCCC(C)C3)CC2)cc(Br)c1O (stereo not drawn)	28%
COc1ccc(C(=O)NCc2cn3ccccc3n2)cc1	-1%
CCc1nnc(SCc2ccc(CSc3nnc(CC)n3N)cc2)n1N	-2%
COc1ccccc1C(=O)NCCn1cc(SCC(=O)Nc2cc(C)on2)c2ccccc21	7%
CCOC(=O)c1[nH]c(C)c(C(=O)N(CC)CC)c1C	12%
Cc1[nH]n(-c2ccccc2)c(=O)c1/C=N/c1ccccn1	10%
OC[C@@H]1O[C@@H](n2cnc3c(NCCc4ccccc4)ncnc32)[C@@H](O)[C@H]1O	2%
CN1CCN(Cc2nc(N)nc(Nc3ccc4c(c3)OCCO4)n2)CC1	-5%
c1cncc(C2=NCCC2)c1	-9%[12.8 µM]
Cc1cc(-c2c(C)n([O-])c(C)c(C)[n+]2=O)ccc1F	-14%
COc1ccccc1CC1/C(=N/O)C2CCN1CC2 (stereo not drawn)	-10%
COC(=O)C1CCN(C(=O)C(C)Oc2ccc(Cl)cc2Cl)CC1 (stereo not drawn)	66%
CN(C(=O)Cc1ccc(Cl)c(Cl)c1)[C@H](CN1CCCC1)c1cccc(N=C=S)c1	111%
Cc1ccnc(SCC(=O)N2CCN(c3cccc(Cl)c3)CC2)n1	77%
CCC(Sc1nnc(C)s1)C(=O)Nc1nccs1 (stereo not drawn)	133%
O=C(Nc1nc(-c2ccccn2)cs1)C1CC1	-19%
N=C(N)SCc1cccc(-c2nc3ccccc3c(=O)o2)c1	-2%[5.75 µM]
Cc1cc(=O)oc(C)c1C(=O)OCC(=O)c1ccccc1	11%
O=S(=O)(c1cccc(-c2nc3ccccc3s2)c1)N1CCCC1	26%
Brc1ccc(CSc2nnc(Cc3c[nH]c4ccccc34)o2)cc1	-6%
Cc1ccc(-c2noc(CCC(=O)N(C)c3ccccc3C)n2)cc1	72%
Cc1ccc(NC(=O)CS(=O)CC(=O)Nc2cccc(C)c2C)cc1F (stereo not drawn)	0%
COc1cc2c(cc1OC)C(/C(C#N)=N\O)=NC(C)(C)C2	-4%
c1cc2nnnn2nc1N1CCCCC1	-2%
OCCN1CCN(C(=S)c2ccc(Cl)c(Cl)c2)CC1	-1%
O=C(O)C(CCCCN1C(=O)c2ccccc2C1=O)N1C(=O)c2ccccc2C1=O (stereo not drawn)	-10%
COc1ccc(OC)c(NC(=O)CCN2CCN(Cc3ccccc3)CC2)c1	59%
O=C(Oc1cccc2cccnc12)c1cccc(-n2cnnn2)c1	26%
COc1ccc(C2CCCN2C(=O)c2cccs2)cc1 (stereo not drawn)	9%
CCN(CC(F)(F)C(F)F)S(=O)(=O)c1ccc(NC(=O)OC)cc1	0%
COC(CCN(C)C)(c1ccccc1)c1ccccc1	13%
Cc1ccc2[nH]c3c(NCc4ccco4)ncnc3c2c1	-18%
Cn1c(CNC(=O)Nc2ccccc2Cl)nnc1SCc1ccccc1	25%
CCOC(=O)c1ccc(NCc2nc3ccccc3[nH]2)cc1	-12%
Cc1ccc2nc3c(cc2c1)CC1(C(=O)N(C)C(=O)N(C)C1=O)C1CCCCN31 (stereo not drawn)	99%
O=C(Nc1ccon1)c1csc2ccccc12	-13%
COc1ccc(C2=NOC(C(=O)Nc3cc(Br)ccc3O)C2)cc1OC (stereo not drawn)	6%

Compounds above with an NH in an aromatic ring, in the order listed:
compound	AmpC inh no det
CCOC(=O)c1[nH]c(C)c(C(=O)N(CC)CC)c1C	12%
Cc1[nH]n(-c2ccccc2)c(=O)c1/C=N/c1ccccn1	10%
Brc1ccc(CSc2nnc(Cc3c[nH]c4ccccc34)o2)cc1	-6%
Cc1ccc2[nH]c3c(NCc4ccco4)ncnc3c2c1	-18%
CCOC(=O)c1ccc(NCc2nc3ccccc3[nH]2)cc1	-12%

Continued:
compound	AmpC inh no det
CN1CCN(C(=O)c2ccc(CS(=O)(=O)c3c(Cl)cccc3Cl)o2)CC1	1%
CC(C)C(C(=O)C=[N+]=[N-])N1C(=O)c2ccccc2C1=O (stereo not drawn)	-2%
Cc1noc(NS(=O)(=O)c2ccc(N3CC(O)=C(c4ccccc4)C3=N)cc2)c1C	-2%
Cc1cc(NC(=O)c2ccc(Br)c(S(=O)(=O)N3CCCC3)c2)no1	-10%
O=C1Nc2cc(Cl)c(Cl)cc2N2CCNC[C@H]12	10%
CCN(CC)CC(=O)Nc1ccc2c(c1)Nc1ccccc1CC2	70%
CC(C)C(=O)C(C)(C)CCc1ccccn1	-4%[5.75 µM]
CCOC(=O)C1CCCN(C(=O)c2ccc3c(=O)n(CCOC)c(=S)[nH]c3c2)C1 (stereo not drawn)	4%
CC(=O)c1ccc(N(C)C)c2c(N(C)C)cccc12	19%
Cc1noc(C)c1-c1nccc(NC2CC2)n1	21%
CCCCNC(=O)C1CCN(S(=O)(=O)c2cnc[nH]2)CC1	-4%
O=S(=O)(c1cccs1)N1CCN(C/C=C/c2ccccc2)CC1	42%
CCOC(=O)c1cccc(NC(=O)Cn2c(CC(=O)NC)nc3ccccc32)c1	73%
CC1Cc2ccccc2N1C(=O)CSc1nnc(CSc2ncccn2)n1C (stereo not drawn)	27%
CCOC(=O)c1csc(NC(=O)CSc2nnc(C3CC3)n2C)n1	18%
Fc1ccccc1CSc1nnc(-c2cnccn2)n1Cc1ccco1	45%
CC(C)(C)c1cnnn1-c1ccc(NC(=O)c2ccc(Br)o2)cc1	6%
CCOc1ccc2cc(C#N)c(SCC(=O)NC(C)CC)nc2c1 (stereo not drawn)	-12%
COc1ccc(NC(=O)CN2CCC3(O)CCCCC3C2c2ccccc2OC)cc1 (stereo not drawn)	52%
N#CC1=C2SCN(c3ccc(F)cc3)CN2C(=O)CC1c1cccc(F)c1 (stereo not drawn)	4µM*[single pt active]

Structural class: the compounds so far with a COOH group.
compound	AmpC inh no det
O=C(O)C1CCN(c2nc(-c3ccccc3)nc3c2oc2ccccc23)CC1	9%
O=C(O)C(CCCCN1C(=O)c2ccccc2C1=O)N1C(=O)c2ccccc2C1=O (stereo not drawn)	-10%

(more compounds)
compound	AmpC inh no det
CCCN1C(=O)c2ccccc2NC1c1ccc(OC)cc1O (stereo not drawn)	-22%
Cn1c(SCc2nc3ccccc3n2CCO)nc2ccccc21	10%
CCOC(=O)N1CCC(NC(=O)c2cc(S(=O)(=O)N3CCOCC3)ccc2F)CC1	29%
CC(C)n1c(C(=O)OCC(=O)NCc2ccc3c(c2)OCO3)cc2occc21	9%
Cc1[nH]c(=O)[nH]c(=O)c1S(=O)(=O)N1CCCC(C(=O)N2CCC(Cc3ccccc3)CC2)C1 (stereo not drawn)	99%
O=C(O)CN1CCN(CC(=O)O)CC(=O)[O][Hg][O]C(=O)C1	6%[5.75 µM]
N#Cc1c(-c2ccco2)nc(SCc2ccc(F)cc2)[nH]c1=O	-17%
O=C(O)C1=CCNCC1	10%&-8%
CS(=O)(=O)N(CC(=O)NC1CC1)c1cccc(F)c1	-2%
O=S(=O)(c1ccc(OCC(O)CN2CCN(c3ccccc3)CC2)cc1)N1CCOCC1 (stereo not drawn)	77%
CCCc1n[nH]c(=O)[nH]1	15%
CSCCC1NC2(C(=O)Nc3c(Cl)cccc32)[C@@H]2C(=O)N(C3CCCC3)C(=O)[C@H]12 (stereo partly drawn)	12%
CCOC(=O)c1ccc(NC(=O)Cn2nnc(-c3ccccc3)n2)cc1	7%
COc1ccc(S(=O)(=O)NC2CC3CCC2C3)cc1Cl (stereo not drawn)	-16%
O=c1c2ccccc2[nH]c(=S)n1CCCN1CCN(C2CCCCC2)CC1	2%
COc1ccc(C(C)(C)C)cc1NC(=O)COC(=O)c1cnc(C)cn1	82%
O=C(C[C@@H]1C=Cc2ccccc2N1C(=O)c1ccccc1)c1ccccc1	-5%[5.75 µM]
CC(=O)O[C@]1(C(C)=O)CC[C@@H]2[C@@H]3C=C(C)C4=CC(=O)CC[C@@]4(C)[C@H]3CC[C@]21C	30%[12.8 µM]
N=c1c(C(=O)NCc2ccco2)cc2c(=O)n3ccccc3nc2n1CCc1ccccc1	38%
CCn1c(=O)n(CC)c2cc(S(=O)(=O)N3CCC(c4ccccc4)CC3)ccc21	109%

Single values from the list:
`CCOC(=O)N1CCC(NC(=O)c2cc(S(=O)(=O)N3CCOCC3)ccc2F)CC1` | AmpC inh no det = 29%
`O=C(C[C@@H]1C=Cc2ccccc2N1C(=O)c1ccccc1)c1ccccc1` | AmpC inh no det = -5%[5.75 µM]
`N#Cc1c(-c2ccco2)nc(SCc2ccc(F)cc2)[nH]c1=O` | AmpC inh no det = -17%
`CS(=O)(=O)N(CC(=O)NC1CC1)c1cccc(F)c1` | AmpC inh no det = -2%

More records
compound	AmpC inh no det
CCOC(=O)N1CCN(Cc2cn3ccccc3n2)CC1	-12%
O=C(c1ccccc1)C(Sc1ncn[nH]1)c1ccccc1 (stereo not drawn)	-4%
N#Cc1cccc(-c2nccc(NCc3ccccc3)n2)c1	19%
COc1ccc(-n2c(=O)c(-c3cccs3)nc3cnc(N4CCNCC4)nc32)cc1	79%
O=C(Cn1cnc2c(nnn2Cc2ccccc2)c1=O)N1CCN(c2ccccc2)CC1	40%
CC1C(=O)C(C)C(c2ccc3c(c2)OCO3)NC1c1ccc2c(c1)OCO2 (stereo not drawn)	-7%
CCOC(=O)C1CCCN(c2nc3ccccc3nc2C(C#N)C(=O)OCC)C1 (stereo not drawn)	83%
CC1CCN(C(c2ccccc2)c2nnnn2C(C)(C)C)CC1 (stereo not drawn)	22%
Cc1ccc(C2CC(c3cccc(Cl)c3)n3nc(N)nc3N2)cc1 (stereo not drawn)	71%
COc1cc(OC)cc(-c2nc3nc(C)c(CCC(=O)NCc4ccco4)c(C)n3n2)c1	134%
CCCCc1cc(=O)oc2c(CN3CCCC3)c(O)c(Cl)cc12	29%
CCOC(=O)c1oc2ccccc2c1NC(=O)c1ccc(S(=O)(=O)N(C)C)cc1	40%
c1ccc(-n2c(-c3ccncc3)nnc2-c2cccs2)cc1	3%
OCCCc1nc2ccccc2n1CCOc1ccccc1	79%
CCOC(=O)CCc1c(C)nc2cc(-c3ccccc3OC)[nH]n2c1=O	4µM*[single pt active]
CCOc1ccc(Cn2nnc(C(=O)Nc3cc(C)cc(C)c3)c2N)cc1	4µM*[single pt active]
Cn1c(=O)n(Cc2ccc(F)cc2)c(=O)c2c1nc1n2CCCN1C1CCCCC1	64%
CC(C)C(C)(C)C(C)(C)C(C)(C)S	-16%
O=C(c1cnccn1)N1CCC2(CCCN(Cc3nccs3)C2)CC1	31%

The list is partial; the hit share may differ from the screen's.
